Resorufin autofl: resorufin region autofluorescence; AID 588; actives 0.04% (n = 59,000); max dye-equivalent concentration, M; Compound fluorescence, resorufin region 547/598 nm, buffer; hits give high values; active = above 10 nM dye equivalent; inconclusive = 1 to 10 nM; inactive = 1 nM or less; a few of its hits are not listed in these tables; note: highest value over a series up to 38 µM
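Tris 100 mM pH 8.0; compound added, 15 min RT; CCD imager read, ex 547 nm/em 598 nm; signal normalized to resorufin standard curve (six concentrations per plate) as dye-equivalent concentration.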
AID923: qHTS Assay for Allosteric/Competitive Inhibitors of Caspase-1: Spectroscopic Profiling in AFC Spectral Region | Potency, µM (top dose mostly 57.5 µM), inactives show at the highest dose fluorescence increase, actives largely listed as activators | compound fluorescence, AFC spectral region (405/520 nm); almost no hit is shown here | actives 1.1% (n = 75,000) | AID 923, 2007; active = well fitted activation curve with a large enough effect; inconclusive = small, poorly fitted or top-dose-only effect;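 note: potency is the fitted concentration of half-maximal effect; 0% is about no effect; scaled to a free AFC standard on each plate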
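Baseline compound fluorescence (AFC region, 405 nm ex/520 nm em) taken from the intercept of kinetic reads with 50 nM caspase-1 and 5 uM Ac-WEHD-AFC; normalized to an on-plate AFC standard curve; compounds titrated up to 57 uM.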
TSHR agonist: agonists of human thyroid stimulating hormone receptor | P16473 | AID 926 | actives 0.48% (n = 73,000) | HEK293-CNG-TSHR cells (CNG channel as cAMP sensor), membrane potential dye, cAMP | Potency, µM (titrated, usually from 57.1 µM), for the others: at the top dose activation, hits mostly activators; active = well fitted activation curve of enough size with the parental cells flat; inconclusive = any curve in the parental cells; inactive = parental cells flat and receptor cells flat or falling; note: potency is the fitted concentration of half-maximal effect; % of control where 0% means no effect; weak receptor curves with flat parental cells got no call and are not listed
Target sequence (P16473 whole entry, looked up): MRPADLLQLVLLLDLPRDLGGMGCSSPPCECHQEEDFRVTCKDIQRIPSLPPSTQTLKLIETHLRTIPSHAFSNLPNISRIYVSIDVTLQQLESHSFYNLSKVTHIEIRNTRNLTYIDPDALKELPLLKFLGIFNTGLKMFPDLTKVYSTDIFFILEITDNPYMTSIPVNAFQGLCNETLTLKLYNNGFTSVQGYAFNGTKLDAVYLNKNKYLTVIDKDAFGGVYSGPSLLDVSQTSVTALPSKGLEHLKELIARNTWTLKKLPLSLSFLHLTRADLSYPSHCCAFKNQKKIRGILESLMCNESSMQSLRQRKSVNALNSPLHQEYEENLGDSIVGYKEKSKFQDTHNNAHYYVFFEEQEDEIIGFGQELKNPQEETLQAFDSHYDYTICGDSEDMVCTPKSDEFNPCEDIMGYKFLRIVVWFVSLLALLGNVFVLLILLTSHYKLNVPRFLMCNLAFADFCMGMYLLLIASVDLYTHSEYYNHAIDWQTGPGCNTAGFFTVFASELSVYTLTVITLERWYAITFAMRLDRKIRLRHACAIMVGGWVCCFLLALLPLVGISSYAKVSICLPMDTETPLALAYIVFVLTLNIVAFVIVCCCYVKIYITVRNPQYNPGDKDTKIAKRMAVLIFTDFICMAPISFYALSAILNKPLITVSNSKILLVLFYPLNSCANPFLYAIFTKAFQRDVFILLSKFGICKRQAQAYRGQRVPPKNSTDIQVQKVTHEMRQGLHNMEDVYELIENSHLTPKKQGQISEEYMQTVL
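cAMP rise detected as CNG-channel membrane depolarization by fluorescent dye (emission 590 nm), 30 min after compound, following 60 min dye loading containing 100 uM RO 20-1724 at room temperature. Cells: TSHR/CNG HEK 293, with parental CNG HEK 293 as control.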
A488 autofl: compound fluoresces in the A488 spectral region; compound autofluorescence, A488 spectral region, dye equivalency; hits give high values; max dye equivalency, M; actives 0.1% (n = 59,000); active = above 10 nM dye equivalent; inconclusive = 1 to 10 nM; inactive = 1 nM or less; about half of its hits are not listed in these tables;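 note: highest value over a series up to 38 µM; compound alone in buffer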
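Compounds pin-transferred into 100 mM Tris buffer, pH 8.0, incubated 15 min at room temperature, then imaged with 480 nm excitation/540 nm emission filters. Fluorescence converted to Alexa 488 dye-equivalent concentration via an on-plate six-point A488 standard curve.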
A647 fluor: compound autofluorescence in A647 spectral region; Compound fluorescence, A647 channel (570/671 nm), Tris buffer; max dye-equivalent concentration, M; 59,000 tested, under 10 active; AID 592; active means above 1 µM dye equivalent; inconclusive means 0.1 to 1 µM; inactive means 0.1 µM or less;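 note: values scaled relative to a standard on each plate; highest value over a series up to 38 µM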
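Compounds pinned into 100 mM Tris pH 8.0, 15 min at room temperature, then read with 570 nm excitation/671 nm emission filters. Fluorescence normalized to an on-plate six-point Alexa 647 standard curve, giving dye-equivalent concentration per compound concentration.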
The depositor's hits bear a star; i = inactive; ? = inconclusive; . = no result given; & = joins results of further samples; [ ] = another dose, or the depositor's remark. A portion of the library; rates above refer to the full screens.

smiles | A488 autofl | TSHR agonist | AID923 | Resorufin autofl | A647 fluor
CC(=O)NC(C)C(c1cccs1)N1CCN(c2ccccc2)CC1 (centres undefined) | i | -3.4% | -0.3% | i | 3.83e-08
O=C(c1c(Cl)nc2sccn12)N1CCN(c2cccc(Cl)c2)CC1 | i | ? | -0.7% | i | 1e-09
Cc1ccc(Cn2nnc3c(=O)[nH]c(C4CCN(S(=O)(=O)c5ccc(F)cc5)CC4)nc32)cc1 | i | 6.9% | 0.7% | i | 4.93e-08
Cn1c(=O)n(CCc2ccccc2)c(=O)c2c1nc1n2CCN1c1ccccc1 | i | -2.3% | 0.8% | i | 2.38e-08
CCCCCC1CC(CC(C)C(=O)Nc2nncs2)C(=O)O1 (centres undefined) | i | ? | -0.2% | i | 1.3e-09
O=C(CC1CC2CCC1C2)NCc1cccs1 (centres undefined) | i | -8.6% | -3.4% | i | 1.2e-08
CCOC(=O)c1c(C)[nH]c(C(=O)O)c1C | i | 7.1% | 0.1% | i | 3.09e-08
O=C(CSc1nnc(-c2ccco2)c(-c2ccco2)n1)Nc1ccccc1 | i | . | . | i | 5.2e-09
O=C(CN1CCC(O)(c2ccccc2F)CC1)NCCc1c[nH]c2ccccc12 | i | 1.7% | 2.2% | i | 5.56e-08
O=C(Nc1ccc(S(=O)(=O)N2CCCCCC2)cc1)C1CCCO1 (centres undefined) | i | -9.7% | 0.9% | i | 4.1e-09

Entries of single compounds, looked up by structure. Order of values: A488 autofl | TSHR agonist | AID923 | Resorufin autofl | A647 fluor
Results for CCCCCC1CC(CC(C)C(=O)Nc2nncs2)C(=O)O1 (centres undefined) : i | ? | -0.2% | i | 1.3e-09
Results for CCOC(=O)c1c(C)[nH]c(C(=O)O)c1C : i | 7.1% | 0.1% | i | 3.09e-08

The list continues.
smiles | A488 autofl | TSHR agonist | AID923 | Resorufin autofl | A647 fluor
N#Cc1cn(Cc2cccc(Cl)c2)c2ccccc12 | i | 47.3% | 1.2% | i | 7.72e-08
O=C(Nc1ccccc1)Nc1ccc(S(=O)(=O)N2CCCCC2)cc1 | i | -6.7% | -3.0% | i | 1.81e-08
CCOC(=O)C1=C(C)N=C2SCCC(=O)N2C1c1cc(Br)ccc1OC (centres undefined) | i | -2.2% | 2.8% | i | 6.2e-09
Cc1ccc(C(=O)Nc2sc3c(c2C(=O)O)CCCCC3)o1 | i | 2.9% | -0.2% | i | 6.7e-09
CC(c1nnc(SCC(=O)Nc2ccc3[nH]c(=O)[nH]c3c2)n1Cc1ccccc1)N(C)C (centres undefined) | i | 1.0% | 0.7% | i | 6.9e-09
CC(=O)N1CCC2(CCCN(Cc3ccccc3)C2)CC1 | i | 1.1% | 3.7% | i | 2.8e-09
Cc1ccc2oc(=O)c3cc(C(=O)N4CCN(c5ncccn5)CC4)sc3c2c1 | . | 5.4% | -1.3% | . | .
CS(=O)(=O)N1CCCC(C(=O)NCc2ccc(F)cc2)C1 (centres undefined) | i | -4.1% | 1.3% | i | 2.3e-09
Cc1cc(N(C)C)c(C#N)c(N2CCCCC2)n1 | i | 22.8% | 9.9% | i | 2.75e-08
Nc1ccc(C23CC4CC(CC(O)(C4)C2)C3)cc1 | i | -12.5% | -0.8% | i | 6.1e-09
CSc1nnc2c(n1)OC(c1ccsc1)N(C(C)=O)c1ccccc1-2 (centres undefined) | . | ? | 10.6% | . | .
O=C(O)c1ccc(OCC(O)Cn2cnc3ccccc32)cc1 (centres undefined) | i | 2.1% | 0.2% | i | 1.1e-09
CCn1c(=O)cc(OCC(=O)Nc2ccc3c(c2)OCCO3)c2ccccc21 | i | 0.9%[11.4 µM] | -1.0% | i | 1e-09
c1ccc2c(c1)-c1nc3ccccc3cc1[C@H]2N1CCOCC1 | i | 3.9%[11.4 µM] | 1.1%[11.5 µM] | i | 1e-09
O=C(Nc1cccc(-c2nc3cccnc3s2)c1)c1ccco1 | i | 4.2% | -0.7% | i | 2.51e-08
C=CCOc1nc2c(c(=O)n(Cc3ccc(Cl)c(Cl)c3)c(=O)n2C)n1C | i | . | . | i | 7.47e-08
CC(C)NCc1c(O)c(Br)cc2oc3c(c12)CCCC3 | i | . | . | i | 1e-09
COC(=O)Nc1nnc(-c2ccncc2)s1 | i | -2.7% | 1.5% | i | 1e-09
CCCNC(=O)c1n[nH]c(=O)c2ccccc12 | i | 0.5% | 0.6% | i | 1e-09
COC(=O)c1[nH]c2ccc(Cl)cc2c1NC(=O)CN1CCc2cc(OC)c(OC)cc2C1 | i | -8.8% | 0.3% | i | 1.4e-09
CCn1nnnc1SCC(=O)Nc1nnc(C(C)C)s1 | i | 4.8% | -2.2% | i | 6.92e-08
Cn1c(CCNC(=O)c2cccs2)nnc1SCC(=O)Nc1nc(-c2ccccc2)cs1 | i | -17.8% | -1.8% | i | 1.34e-08
COc1ccc(-c2nc3cccc(C)n3c2NCc2ccco2)cc1OC | i | -6.9% | 9.2% | i | 1.68e-08
CCOC(=O)CSc1nnc(CNC(=O)c2ccc(S(=O)(=O)N3CCCC3)cc2)n1C | i | . | 2.1% | i | 3.9e-09
COc1cc(C(=O)Nc2ccc3c(c2)OCCO3)c(-n2cnnn2)cc1OC | i | 9.7% | 0.2% | i | 9.6e-09
O=C(CSCCO)Nc1cc(C(F)(F)F)ccc1Cl | i | -1.9% | -0.4% | i | 7.3e-09
COc1cccc(C2CC(=O)Nc3c2c(=O)n(C)c(=O)n3C)c1OC (centres undefined) | . | ? | 0.6% | . | .
Cc1ccc(NC(=O)CCC(=O)OCC(F)(F)C(F)F)cc1 | . | -5.7% | -1.4% | . | .
CCC(C)C(N)C(=O)NC(CCC(=O)OCc1ccccc1)C(N)=O (centres undefined) | i | -0.8% | -0.1% | i | 3.97e-08
Cc1ccc(C(=O)NCC2CCCO2)o1 (centres undefined) | i | 1.9% | -1.5% | i | 1e-09
CC(C)CO/N=C1/C[C@@H](O)[C@@H](O)[C@@H]2[C@@H]3C(=O)N(C4CCCCC4)C(=O)[C@H]3CC[C@@H]12 | . | -11.2%[11.4 µM] | 12.4%[11.5 µM] | . | .
COc1ccc2c3c1O[C@H]1C[C@H](O)C=C[C@@]31CCN(C)C2 | i | 3.3%&-0.7%&1.2% | -0.3% | i | 1e-09&3.2e-09
Cn1nnnc1SCc1ccc(F)cc1 | . | -1.8% | 1.8% | . | .
CCOC(=O)C1C(c2cccc(Cl)c2Cl)NC(=O)NC1(O)C(F)(F)F (centres undefined) | . | 3.7%[11.4 µM] | -0.2% | . | .
COc1ccc(OC)c(-c2cc(C(=O)NCCCn3ccnc3)no2)c1 | i | -22.1% | -1.5% | i | 2.2e-09
CCc1nnc(NC(=O)CSc2nnc(-c3ccncc3)n2Cc2ccccc2)s1 | i | 0.8% | 1.0% | i | 7.9e-09
C=CCn1c(SCC(=O)Nc2ccc(NC(=O)c3ccco3)c(OC)c2)nnc1-c1ccncc1 | i | 5.5% | -1.7% | i | 1e-09
Cc1cccc2cc(CN(CCc3ccccc3)C(=O)N3CCOCC3)c3nnnn3c12 | i | 14.1% | 0.2% | i | 3.25e-08
O=C(COc1ccc(Cl)cc1)NCc1nnc(SCC(=O)NCc2ccc3c(c2)OCO3)o1 | i | 4.6%[11.4 µM] | -1.8% | i | 1e-09
COc1ccc(C(c2nnnn2C2CCCCC2)N2CCN(c3ccc(OC)cc3)CC2)cc1 (centres undefined) | i | 17.9% | -0.1% | i | 3.1e-09
COC(=O)NC(/C(C(=O)OC)=C(\C)NCc1ccccc1)c1cccc(C)c1 (centres undefined) | . | 1.7%[11.4 µM] | -1.6%[11.5 µM] | . | .
CCOC(=O)N1CCN(C(=O)CCCn2c(=O)[nH]c3ccccc3c2=O)CC1 | i | -1.7% | 0.4% | i | 1e-09
CCn1c(CC(=O)Nc2ccccc2)nnc1SCC(=O)Nc1ccccc1C(=O)OC | i | 6.2% | 1.5% | i | 7.35e-08
Cc1cc(N2CCCCCC2)nc(-c2ccccc2O)n1 | i | ? | 3.8% | i | 3.77e-08
O=C(c1ccc(Cl)cc1Cl)N1CCC(c2nc3c(nnn3Cc3ccco3)c(=O)[nH]2)CC1 | i | 3.3% | 0.7% | i | 3.24e-08
O=C(CCn1nc(-c2ccccc2)ccc1=O)N1CCOCC1 | i | . | 1.2% | i | 5.9e-09
CCNc1cc(O)ccc1C | . | ? | 1.6% | . | .
COc1ccc(Cn2nc(C)cc2C)cc1OC | i | -9.5% | -0.3% | i | 1e-09
CN1CCN(c2nc3c(c(=O)[nH]c(=O)n3C)n2CC(N)=O)CC1 | i | 10.8% | -0.1% | i | 1e-09
COc1cc(NC(=O)c2cc(-c3ccco3)on2)c(OC)cc1Cl | i | 4.9% | 0.4% | i | 1.25e-08

Some of the entries above, reformatted:
Each structure is followed by: A488 autofl, TSHR agonist, AID923, Resorufin autofl, A647 fluor
CN1CCN(c2nc3c(c(=O)[nH]c(=O)n3C)n2CC(N)=O)CC1
    i, 10.8%, -0.1%, i, 1e-09
COc1cc(NC(=O)c2cc(-c3ccco3)on2)c(OC)cc1Cl
    i, 4.9%, 0.4%, i, 1.25e-08

(cont.)
smiles | A488 autofl | TSHR agonist | AID923 | Resorufin autofl | A647 fluor
Cc1ccccc1NC(=O)c1c(O)c2cccc3c2n(c1=O)CC3 | i | -1.8% | -0.8% | i | 5.1e-09
Cc1nc2ccc(S(=O)(=O)NC(C(=O)Nc3nccs3)C(C)C)cc2s1 (centres undefined) | . | -3.1% | -2.9% | . | .
COc1ccccc1N1CCN(C(=O)CCc2ccc(S(=O)(=O)NCC(C)C)cc2)CC1 | i | 11.6% | 0.2% | i | 4.16e-08
COc1ccc(-c2nc(-c3ccncc3)no2)cc1OC | i | 2.6% | 0.2% | i | 3.6e-09
COc1ccccc1CNC(=O)Cn1cnc2ccccc2c1=O | i | 4.9% | -0.3% | i | 1.48e-08
O=C(O)c1cccc(N=Nc2c(S(=O)(=O)O)ccc3c2C(=O)c2ccccc2C3=O)c1O | i | ? | -1.1%[11.5 µM] | i | 1e-09
CC(c1ccccc1)n1cc(C(=O)NCC2COc3ccccc3O2)nn1 (centres undefined) | i | 15.2% | 1.5% | i | 1.42e-08
N=c1sc2ccccc2n1CCS (tested in a mixture with another compound) | i | 0.5%[11.4 µM] | 1.9%[11.5 µM] | i | 1e-09
Cc1cccc(N2CCN(C(=O)c3ccc(N4CCCC4=O)cc3)CC2C)c1 (centres undefined) | i | 15.4% | 1.1% | i | 3.9e-09
O=C(CSc1nc(O)c(Cc2ccccc2)c(=O)[nH]1)Nc1ccccc1 | . | -5.1% | 0.4% | . | .
CN(C)C(=O)c1ccc(-c2nc(Nc3ccccc3)c3ccccc3n2)cc1 | i | 20µM* | 3.5% | i | 2.9e-09
Cc1ccnc(SCCn2c(N(C)Cc3ccccc3)nc3c2c(=O)n(C)c(=O)n3C)n1 | . | -6.3% | -0.2% | . | .
CC1(C)CNC(=O)c2sc(N3CCOCC3)nc2C1 | i | . | . | i | 2.2e-09
CCn1c(=O)cc(SCC(=O)Nc2ccc3c(c2)OCO3)c2ccccc21 | i | 6.4% | -2.1% | i | 1.01e-08
Cc1cccc(CCNC(=O)CCc2nc(-c3ccccc3F)no2)c1 | i | ? | -0.6% | i | 3.18e-08
O=C(CSc1nnc(-c2cccnc2)o1)Nc1ccccn1 | i | 4.5% | -1.2% | i | 2.4e-08
CCOC(=O)C1CCN(c2c(NCCCN(C)C3CCCCC3)c(=O)c2=O)CC1 | . | 1.4% | 0.0% | . | .
Cc1noc(NS(=O)(=O)c2ccc(NC(=O)Nc3ccc(Cl)c(Cl)c3)cc2)c1C | i | -1.2% | 1.2% | i | 6.6e-09
COc1cccc(-c2noc(N)c2C#N)c1 | i | 2.0% | -1.0% | i | 2.55e-08
Cc1csc(NC(=O)c2cnccn2)n1 | i | -4.6%[11.4 µM] | -1.6% | i | 2.46e-08
